Source: PubChem BioAssay
KCNQ2 inh = KCNQ2 channel blockers in CHO-K1 cells – cell-based, FluxOR thallium flux, B-score, primary screen (AID 2156). O88943. 20 min; hits give low values; only compounds with negative scores are shown here; some inactives read as strong as hits. B-score at 10 µM. 310,000 compounds, 1.1% hits;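 active = fluorescence ratio B-score at most minus 3 library SDs, with starting brightness B-score within 2 library SDs, cut at about -5.5 in these data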
Target sequence (O88943 whole entry, looked up): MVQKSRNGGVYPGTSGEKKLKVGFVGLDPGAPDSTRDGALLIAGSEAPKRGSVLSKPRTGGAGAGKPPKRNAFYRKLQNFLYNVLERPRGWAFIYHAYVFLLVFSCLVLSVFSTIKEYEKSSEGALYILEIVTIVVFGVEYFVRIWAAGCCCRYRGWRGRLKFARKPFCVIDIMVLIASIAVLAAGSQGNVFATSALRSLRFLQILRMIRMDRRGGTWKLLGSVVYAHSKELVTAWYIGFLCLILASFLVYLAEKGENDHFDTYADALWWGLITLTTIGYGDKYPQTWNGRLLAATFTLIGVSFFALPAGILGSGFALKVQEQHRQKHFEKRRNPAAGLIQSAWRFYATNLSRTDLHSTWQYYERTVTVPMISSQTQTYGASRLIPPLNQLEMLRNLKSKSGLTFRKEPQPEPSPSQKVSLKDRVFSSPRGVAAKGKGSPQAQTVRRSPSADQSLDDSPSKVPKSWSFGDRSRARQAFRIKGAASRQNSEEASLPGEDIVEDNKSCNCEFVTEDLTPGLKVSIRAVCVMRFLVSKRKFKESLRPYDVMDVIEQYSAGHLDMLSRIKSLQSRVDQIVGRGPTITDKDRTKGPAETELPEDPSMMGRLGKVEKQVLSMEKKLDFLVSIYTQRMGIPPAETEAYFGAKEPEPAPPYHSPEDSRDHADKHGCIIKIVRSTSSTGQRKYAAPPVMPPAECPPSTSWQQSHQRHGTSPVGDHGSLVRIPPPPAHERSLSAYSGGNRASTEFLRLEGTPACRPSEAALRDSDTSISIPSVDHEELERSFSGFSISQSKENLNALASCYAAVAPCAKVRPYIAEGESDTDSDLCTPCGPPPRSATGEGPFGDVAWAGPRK
KCNQ2 inh baseline = further read-out of KCNQ2 inh, marked with its call; B-score; measured here: initial fluorescence intensity artifact check;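 brightness before thallium and not channel activity; 0 = typical well and far values either way flag optical interference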
* = called active by the depositor; i = inactive. These rows are one share of the data, so the mix of outcomes need not match the whole.

No.	compound	KCNQ2 inh	KCNQ2 inh baseline
1	COC(=O)Cc1c(C)c2ccc(OCC(C)=O)c(C)c2oc1=O	i	-1.43
2	CCO[C@H]1OC(C(=O)NCc2nc3ccccc3[nH]2)=C[C@@H](c2csc3ccccc23)[C@@H]1CCCO	i	-0.97
3	CC(/C=N/NC(=O)Cc1cccn1C)=C\c1ccco1	i	0.38
4	Cc1c(CN2CCCC(C(=O)Nc3cccc(-n4cccn4)c3)C2)cnn1C (stereo not given)	i	-1.17
5	OC(CCN1CCCC1)(c1ccccc1)C1CCCCC1 (stereo not given)	i	2.57
6	CCOc1ccccc1N1CCN(c2nc(N)c(C#N)c(CC#N)c2C#N)CC1	i	-0.61
7	O=C(Cn1nnc(-c2ccccc2)n1)NCc1ccccc1	i	-0.06
8	COc1ccc(Nc2nnc(-c3ccccc3)c3ccccc23)cc1C(=O)N1CCCCC1	i	0.3
9	CN1C(C(=O)NCc2ccc(OC(F)(F)F)cc2)CC2Cn3c(nc4ccccc43)C21 (stereo not given)	i	0.48
10	N#C/C(=C(/O)COC(=O)CCC1CCCCC1)c1nc2ccccc2[nH]1	i	-1.77
11	CCCOc1ccc(C2C(C(=O)c3ccc(C)o3)=C(O)C(=O)N2CCCn2ccnc2)cc1 (stereo not given)	i	2.31
12	COc1ccc(-c2cc(OC)c3c(C)oc(C)c3c(=O)c2)cc1OC	i	-0.53
13	Cc1nn(C(C)C(=O)NCC2CCCO2)c(=O)c2c1sc1ccccc12 (stereo not given)	i	-1.05
14	O=C(COC(=O)c1cc[n+]([O-])cc1)NCCc1ccc(Cl)cc1Cl	i	2.34
15	CN(C)S(=O)(=O)c1ccc(C(=O)OCC2COC(C)(C)O2)cc1 (stereo not given)	i	1.26
16	COc1ccccc1NS(=O)(=O)c1ccc(O)c(C(=O)OCc2cccc([N+](=O)[O-])c2)c1	i	1.82
17	COc1ccc(C(c2nnnn2C(C)C)N2CCN(C(=O)c3ccco3)CC2)cc1 (stereo not given)	i	0.7
18	O=C(CCCCCn1nnc2ccccc2c1=O)Nc1ccccc1F	i	1.15
19	CCOC(=O)CSc1ncc(-c2ccccc2)nn1	i	0.56
20	CCCNS(=O)(=O)c1ccc(CCC(=O)N2CCN(CC)CC2)cc1	i	2.48

A draw from above in order of SMILES length, ascending:
No.	compound	KCNQ2 inh	KCNQ2 inh baseline
19	CCOC(=O)CSc1ncc(-c2ccccc2)nn1	i	0.56
7	O=C(Cn1nnc(-c2ccccc2)n1)NCc1ccccc1	i	-0.06
18	O=C(CCCCCn1nnc2ccccc2c1=O)Nc1ccccc1F	i	1.15
20	CCCNS(=O)(=O)c1ccc(CCC(=O)N2CCN(CC)CC2)cc1	i	2.48
4	Cc1c(CN2CCCC(C(=O)Nc3cccc(-n4cccn4)c3)C2)cnn1C (stereo not given)	i	-1.17
17	COc1ccc(C(c2nnnn2C(C)C)N2CCN(C(=O)c3ccco3)CC2)cc1 (stereo not given)	i	0.7
11	CCCOc1ccc(C2C(C(=O)c3ccc(C)o3)=C(O)C(=O)N2CCCn2ccnc2)cc1 (stereo not given)	i	2.31

The list continues.
No.	compound	KCNQ2 inh	KCNQ2 inh baseline
21	CCOc1ccccc1NC(=O)C1COc2ccccc2O1 (stereo not given)	i	-0.37
22	Cc1cc(C)cc(OCC(=O)Nc2ccc(CN3CCCCC3)cc2)c1	i	1.42
23	CC1=C(C(=O)OC(C)C)C(c2cncc(-c3ccc(F)cc3)c2)C(C#N)=C(N)O1 (stereo not given)	i	-0.17
24	CCCCC(=O)NC(=S)NNC(=O)CCc1ccccc1	i	0.31
25	CCS(=O)(=O)N1CCC(NC(=O)C(Cc2ccc(OC)c(OC)c2)NC(C)=O)CC1 (stereo not given)	i	0.13
26	COc1ccccc1N1CCN(c2nc(-c3ccccc3)cc(C(F)(F)F)n2)CC1	i	0.78
27	CCOC(=O)c1ccc(NC(=O)N2CCN(Cc3ccccc3)CC2)cc1	i	-2.24
28	O=C(O)C1C(c2ccccc2)C(C(=O)OCCCO)C1c1ccccc1 (stereo not given)	i	-0.96
29	COc1ccc(CCN2C(=O)/C(=C\c3ccco3)SC2=S)cc1OC	i	1.15
30	Cc1nonc1CC(=O)NC1CCCc2c1cnn2-c1ccc(F)cc1F (stereo not given)	i	-0.49
31	CCCCCCOC(=O)C(C#N)c1nc2ccccc2nc1N1CCN(C)CC1 (stereo not given)	-5.68*	-0.08*
32	COc1ccc(-c2nn3c(-c4ccco4)nnc3s2)cc1OC	i	1.28
33	COc1cc(C2CC(=O)N(c3ccc(C)cc3)C(=O)C2)cc(OC)c1OC	i	3.45
34	O=C1COc2ccc(S(=O)(=O)Nc3ccc4c(c3)OCO4)cc2N1	i	-0.75
35	O=c1oc2ccc(Br)cc2cc1S(=O)(=O)c1ccc(F)cc1	i	0.03
36	COc1cccc(NC(=O)NCC2CCN(Cc3ccc(F)cc3)CC2)c1	i	0.03
37	COc1ccc(CCNC(=O)C2CCC(=O)N2CCc2ccccc2)cc1OC (stereo not given)	i	0.21
38	CCOC(=O)c1ccc(NC(=O)N2CCN(Cc3cccc(F)c3)CC2)cc1	i	-0.13
39	N#CCCn1cc(/C=N/NC(N)=S)c(-c2ccccc2)n1	i	-1.04
40	CCN(CC(=O)Nc1c(F)cccc1F)C(=O)CNC(=O)c1ccco1	i	0.05
41	O=C1CS/C(=N\C(=O)N2c3ccccc3Sc3ccccc32)N1	i	1.06
42	COc1ccc(CNc2nc3ccc(C)cc3s2)c(OC)c1OC	i	-1.09
43	O=C1CCCN1C(=O)CCC(=O)N1CCCC1=O	i	-0.58
44	Cc1cc(C)nc(SCCC(=O)Nc2ccccc2)n1	i	-0.04
45	COc1ccc2oc(C(=O)NNC(=O)c3ccc(F)cc3)c(C)c2c1	i	0.95
46	NNC(=O)c1ccccc1OCc1ccccc1	i	-0.17
47	COc1ccc2nc(C)cc(NCc3ccc(F)cc3)c2c1	i	8.74
48	CCc1ccc(N2C(=O)CC(NNc3nc4ccccc4s3)C2=O)cc1 (stereo not given)	i	-0.2
49	Cc1ccc(OCCC(=O)N(Cc2ccccc2)c2c(N)n(Cc3ccccc3)c(=O)[nH]c2=O)cc1	i	1.44
50	C=CCn1c(SCC(=O)N2c3ccccc3Sc3ccccc32)nnc1-c1ccco1	i	0.53
51	COc1ccc(NC(=O)C2CCCN(S(C)(=O)=O)C2)cc1 (stereo not given)	i	2.84
52	CCOC(=O)C1=C(C)NC(=O)NC1C(C)C (stereo not given)	i	0.5
53	N#Cc1cccc(CN2C=NS(=O)(=O)c3ccccc32)c1	i	-1.59
54	COc1cc(CN2CCCC(CO)(Cc3ccccc3C)C2)cc2c1OCO2 (stereo not given)	i	1.04
55	COc1ccc2c(c1)CC/C2=N\OC(=O)c1ccccc1C	i	0.24
56	COC(=O)N=Nc1c(O)[nH]c2ccc(Br)cc12	i	0.11
57	COc1ccc(-c2nc(CS(=O)(=O)CC(=O)NCCc3cc(OC)ccc3OC)c(C)o2)cc1	i	0.48
58	COc1ccc(C(=O)Oc2cc(C)[nH]c(=O)c2[N+](=O)[O-])cc1	i	1.89
59	Fc1cc(F)c2nc(N3CCCCC3)sc2c1	i	-0.09
60	CC1CCCC(C)N1/N=C/C=C/c1ccccc1[N+](=O)[O-] (stereo not given)	i	-1.58
61	COCCN(C(=O)CNC(=O)c1ccco1)C(C(=O)NC1CCCC1)c1ccccc1F (stereo not given)	i	-0.38
62	C#CCOCCOCCOCCNc1nc(N2CCN(C(=O)C(Cc3cc4ccccc4[nH]3)n3cc(C(N)C(C)CC)nn3)CC2)nc(N2CCN(C(=O)C(Cc3cc4ccccc4[nH]3)n3cc(C(N)C(C)CC)nn3)CC2)n1 (stereo not given)	i	1.03
63	CCCc1nc(SCC(=O)Nc2nnc(CC)s2)c2c(C)c(C)sc2n1	i	0.78
64	COC(=O)c1sc(NC(=O)C(C)c2ccccc2)nc1C (stereo not given)	i	-0.85
65	COc1cc(OC)c(C#N)c(S(=O)Cc2ccccc2)c1 (stereo not given)	i	2.85
66	COc1ccc2cc(C(c3nnnn3C3CCCC3)N3CCOCC3)c3nnnn3c2c1 (stereo not given)	i	0.91
67	CCCCCOc1ccccc1C(=O)NCCCCCC(=O)O	i	1.75
68	CCCCn1c(N)c(N(CC(C)C)C(=O)CSCc2cccc(C)c2)c(=O)[nH]c1=O	i	0.93
69	Cc1ccc(N2C(=O)[C@@H]3[C@H](C2=O)[C@H]2C=CC=NN2[C@@H]3C(=O)Nc2ccc(Cl)cc2)cc1	i	1.4
70	Cc1ccc(-c2nc(C#N)c(N3CCC(C)CC3)o2)cc1	i	0.22
71	CCCCc1nc2ccc(S(=O)(=O)O)cc2[nH]1	i	2.96
72	Cn1c(/C(C#N)=C/Nc2ccccn2)nc2ccccc21	i	-0.61
73	COc1ccc(CNC(=O)c2cc(-c3ccccc3OC)on2)cc1	i	-0.53
74	O=C1CC2(CCN(C(=O)c3cccc([N+](=O)[O-])c3)CC2)Oc2ccccc21	i	-1.23
75	Cn1c(COc2ccccc2)nnc1SCCN1CCOCC1	i	0.71
76	N#Cc1cccc(NC(=O)COC(=O)c2ccccc2C(=O)c2ccc(Cl)c([N+](=O)[O-])c2)c1	i	0.76
77	CCOc1ccc(C(CC(=O)O)NC(=O)COc2ccccc2)cc1 (stereo not given)	-5.97*	-0.17*
78	COc1cccc(C(=O)NC(C)c2ccc(-c3ccccc3)cc2)c1OC (stereo not given)	-5.96*	-1.1*
79	CCn1c(SCC(=O)OC)nc2sc3c(c2c1=O)CCC3	i	1
80	CNC(=O)c1c(Br)cnn1-c1ccc(C)cc1	i	2.63

Next section; the last two above are carried over.
No.	compound	KCNQ2 inh	KCNQ2 inh baseline
79	CCn1c(SCC(=O)OC)nc2sc3c(c2c1=O)CCC3	i	1
80	CNC(=O)c1c(Br)cnn1-c1ccc(C)cc1	i	2.63
81	COc1ccc(CN2CN(S(=O)(=O)c3cccs3)c3nc4ccccc4nc32)cc1	i	-0.22
82	O=C(NCCNC(=O)c1ccccc1F)c1ccco1	i	1.09
83	O=C(CCC(=O)c1ccc(F)cc1)Nc1cccnc1	i	-0.1
84	CCOC(=O)C1(Cc2ccc(Cl)cc2)CCN(C(=O)CCc2cnccn2)CC1	i	0.07
85	COc1ccc(C2NC(=O)CS2)cc1 (stereo not given)	i	0.03
86	Cc1ccc2[nH]c(=O)c(CN(Cc3ccc4c(c3)OCO4)Cc3nnnn3Cc3ccco3)cc2c1	i	1.1
87	Clc1ccc(-n2nnnc2SCc2cn3ccccc3n2)cc1	i	0.7
88	Cc1ccc(C(=O)NCc2nnc(SCC(=O)Nc3ccccc3)n2C)cc1	i	0.57
89	C[C@@H](NC(=O)c1cc2c([nH]c3ccccc32)c(-c2ccccc2)n1)C(=O)O	i	1.14
90	On1cnnc1-c1ccccc1	i	2.07
91	Cn1cc(C(=O)NS(=O)(=O)Nc2ccc(Br)cc2)c2ccccc21	i	0.46
92	CC(NC(=O)/C(C#N)=C/c1ccc(OCC(=O)O)cc1)c1ccccc1 (stereo not given)	i	-1.61
93	CC(NCc1ccccc1)c1ccccc1O (stereo not given)	i	-0.03
94	COc1ccc(CC(=O)OC(C)CN2CCCCC2)cc1 (stereo not given)	i	-1.01
95	CC(C)(C)C(=O)OCc1nc(-c2ccc(F)cc2)cs1	i	-0.01
96	CSCCC1NC2(C(=O)Nc3ccc(Cl)cc32)[C@@H]2C(=O)N(C3CCCC3)C(=O)[C@H]12 (stereo not given in full)	i	-0.75
97	Cc1cccc(C(=O)N2CCCC(c3nc(-c4ccc(F)cc4)no3)C2)c1 (stereo not given)	i	0.38
98	CN(C(=O)C1CCC(CNS(=O)(=O)c2cccc3cccnc23)CC1)C1CCCCC1 (stereo not given)	i	-0.64
99	CCCc1ncc(CN2CCCCC2C(=O)Nc2ccc(Oc3ccccc3)nc2)cn1 (stereo not given)	i	-0.43
100	O=C(O)CSCC(=O)N1CCN(c2cc(C(F)(F)F)nc3ccccc23)CC1	i	0.06
101	Cc1cc(C)nc(NN2C(=O)C=CC2=O)n1	i	-0.88
102	O=C(O/N=C(/c1ccccc1)c1ccncc1)c1ccccc1[N+](=O)[O-]	i	-2.57
103	CN(C)c1ncc(CN2CCC(C(=O)Nc3ccc(-n4cccn4)cc3)CC2)s1	i	1.79
104	O=C(O)c1cccc(N2CCCCS2(=O)=O)c1	i	1.07
105	COc1cccc2cc(C(C)N(CCCN3CCOCC3)C(=S)Nc3cc(C)ccc3C)oc12 (stereo not given)	i	0.89
106	COc1ccc(NC(=S)N(CCCN2CCN(C)CC2)Cc2cccs2)cc1	i	0.64
107	Cc1ccc(-c2cc(-c3ccc(F)cc3)n[nH]2)c(O)c1	i	0.89
108	CCN1CCN(C(=O)c2cc3c(-c4ccc(Cl)cc4)nn(C)c3s2)CC1	i	0.56
109	O=C(O)Cn1c(=O)c2cccn2c2ccccc21	i	0.03
110	CC(=O)N1CCc2cc(S(=O)(=O)CCC(=O)NCc3ccc(C)o3)ccc21	i	-1.04
111	Cc1c(/C=C/C(=O)c2ccc(C(C)C)cc2)cnn1C	i	2.01
112	CC(C)(C)NC(=O)C1CCN(S(=O)(=O)c2cccc(C(F)(F)F)c2)CC1	i	-1.2
113	COc1ccc(CC(NC(C)=O)C(=O)NC2CCN(C(=O)c3ccc(OC)c(OC)c3)CC2)cc1OC (stereo not given)	i	0.42
114	CCN(CC)S(=O)(=O)c1ccc(Cl)c(C(=O)Oc2cccc(-c3cnc4ccccc4n3)c2)c1	i	1.13
115	COCCn1c(N)c(S(=O)(=O)c2cccs2)c2nc3ccccc3nc21	i	0.2
116	O=C(CC(C(=O)N1CCc2ccccc21)n1ccnc1)NCc1cccnc1 (stereo not given)	i	1.05
117	CN(C)c1cc(-c2ccc(Cl)cc2)oc(=O)c1Cl	i	0.14
118	CCCOc1ccc(C(=O)CCN2CCCCC2)cc1	i	0.53

Quoted from the listing:
In KCNQ2 inh baseline, compound 101 is listed with -0.88
In KCNQ2 inh baseline, compound 114 is listed with 1.13
In KCNQ2 inh baseline, compound 112 is listed with -1.2
